2A firefly – lowers the firefly signal of an FMDV 2A StopGo reporter | 0.23% of 120,000 active | Potency, µM (titrated, usually from 57.5 µM), inactives show at the top dose signal change, negative = less light | HEK cells with a luciferase reporter of 2A StopGo recoding | AID 1745856; active = well fitted falling curve with a large enough effect; inconclusive = small, poorly fitted or top-dose-only effect; inactive = no such curve, though single readings can be large or run the other way; note: nearly all actives have a fitted effect of over 60% in size; overnight with compound
2A Renilla – FMDV 2A StopGo reporter, Renilla signal; HEK cells with a luciferase reporter of 2A StopGo recoding; Potency, µM (highest dose often 57.5 µM), without a hit: top-dose signal change, negative = less light; 0.32% of 120,000 active; AID 1745857; active means well fitted falling curve with a large enough effect; inconclusive means small, poorly fitted or top-dose-only effect; inactive means no such curve, though single readings can be large or run the other way; note: nearly all actives have a fitted effect of over 55% in size; overnight with compound
* = called active by the depositor; ? = inconclusive; & = joins results of further samples; [ ] = dose if it differs, or a comment. % is set by controls: 0 for no effect and ±100 for the full control effect; potency is the fitted concentration of half-maximal effect. Some of the compounds tested; the hit share may differ from the screen's.

Order of values – 2A firefly	2A Renilla
- COc1ccc(N2C(=O)C(CC(=O)Nc3ccc(F)cc3)N(CCC3=CCCCC3)C2=O)cc1 (stereo not given)
  -24%	184%[activator]
- COc1ccccc1CNc1nc2ccccc2nc1NS(=O)(=O)c1cccc(Cl)c1
  12%	44%[activator]
- CCOC(=O)c1c(C)[nH]c(C)c1S(=O)(=O)N1CCC(C(=O)NCc2ccccc2Cl)CC1
  ?	28%
- Cc1nn(-c2ccc3nncn3n2)c2c1C(c1ccc(OC(C)C)cc1)CC(=O)N2 (stereo not given)
  16%	-6%
- CC1(C)CC(NC(=O)C2CCC2)CC(C)(CNC(=O)C2CCC2)C1 (stereo not given)
  -3%	2%
- CCOC(=O)c1ccc(N2CCN(C(C)=O)CC2)c(NC(=O)c2ccccc2C)c1
  -3%	55%[activator]
- CCn1c(-n2nc(C)cc2C)nc2c1c(=O)n(CCN1CCCCC1)c(=O)n2C
  3%	0%
- CCOc1ccc(C(C)=O)cc1COc1ccc2c(C)cc(=O)oc2c1C
  12%	8%
- COc1ccc(-c2c(C)oc3cc(OCC(=O)O)ccc3c2=O)cc1OC
  -11%	-6%
- COc1cccc(NC(=O)C2CCCN2S(=O)(=O)c2ccc3c(c2)n(C)c(=O)c(=O)n3C)c1 (stereo not given)
  -7%	-5%
- N#Cc1c(NC(=O)c2ccnn2C(F)F)sc2c1CCCCC2
  ?	5µM*
- CCOCCOC(C)C(=O)N(CC(=O)OCC)CC(C)C (stereo not given)
  -13%	-3%
- COc1ccccc1NC(=O)c1ccc2c(c1)NC(=O)CS2
  12%	10%
- O=C(CCn1cnc2onc(-c3ccc(F)cc3)c2c1=O)N1CCN(c2cccc(Cl)c2)CC1
  -17%	-12%
- Cc1ccc(C(=O)CSC#N)o1
  0%	69%[activator]
- CCc1nn(CCCC(=O)NCc2ccc(OC)c(OC)c2)c(=O)c2cc3occc3n12
  0%	16%
- CCOC(=O)c1ccc(NC(=O)CCn2c(=O)c3cccn3c3ccccc32)cc1
  -4%	8%
- COc1ccc(NC(=O)Cn2c(=O)n(Cc3ccco3)c(=O)c3sc4ccccc4c32)c(OC)c1
  -10%	-6%
- CC(=O)c1cc(-c2ccc(F)cc2)n(CC(=O)NCc2ccc(C)cc2)c1C
  -9%	-6%
- CCC1CN(CC(=O)Nc2cc(C)cc(C)c2)c2ccccc2S1 (stereo not given)
  0%	0%
- CC(C)N1CCC(NC(=S)NCc2ccc(F)cc2)CC1
  -4%	-16%
- Cc1cccc(Cn2nnc3c(=O)[nH]c(C4CCN(C(=O)c5ccc(F)cc5)CC4)nc32)c1
  -20%	-9%
- COc1ccc(CCNC(=O)c2cc3n(n2)CCCN(Cc2ccc(C)cc2)C3=O)cc1OC
  ?	22%
- CCc1ccc(NC(=O)c2ccc3[nH]c(C)c(C)c3c2)cc1
  62%[activator]	-8%
- CCc1nc2ccc(C(=O)Nc3cccc(C)n3)cc2nc1CC
  70%[activator]	-3%
- COc1ccccc1C1=NC(C(F)(F)F)(C(F)(F)F)N=C(N(C)C)O1
  -10%	0%
- CC1CC(=O)C2CCCCC2N1 (stereo not given)
  -5%	6%
- CC[C@@H](C)[C@@H](C(=O)Nc1ccc(C)cc1)N1Cc2ccccc2C1=O
  22%	55%[activator]
- COc1ccc(CNC(=O)c2cc3cc4cc(OC)ccc4nc3o2)cc1
  58%[activator]	2%
- Cc1cccc(-c2c3c(=O)n(C)c(=O)n(C)c3c3c(C)cc(C)nn23)c1
  -3%	2%

One compound at a time, from the list above. Screens in order: 2A firefly	2A Renilla
CC1CC(=O)C2CCCCC2N1 (stereo not given) across the screens: -5%	6%
Cc1cccc(-c2c3c(=O)n(C)c(=O)n(C)c3c3c(C)cc(C)nn23)c1 across the screens: -3%	2%
COc1ccccc1C1=NC(C(F)(F)F)(C(F)(F)F)N=C(N(C)C)O1 across the screens: -10%	0%
CCc1ccc(NC(=O)c2ccc3[nH]c(C)c(C)c3c2)cc1 across the screens: 62%[activator]	-8%
COc1ccc(CCNC(=O)c2cc3n(n2)CCCN(Cc2ccc(C)cc2)C3=O)cc1OC across the screens: ?	22%

(list continues)
Order of values – 2A firefly	2A Renilla
- Cc1ccc2cccc(NC(=O)COc3ccc(C(C)C)cc3)c2n1
  -12%	?
- CC(=O)N(C)c1ccc(NC(=O)CC2C=CCC2)cc1 (stereo not given)
  0%	11%
- CCCc1cc(C(=O)Oc2ccc(NC(C)=O)cc2)sc1C
  11%	-15%
- CCC(CC)=NNC(=O)C1CC1c1ccccc1 (stereo not given)
  16%	7%
- Cc1nc(C)c(-c2csc(Nc3ccc(N(C)C)cc3)n2)s1
  32%[activator]	-23%
- CCCOc1ccc(-c2nn(-c3ccccc3)cc2C2NC(=O)NC(C)=C2C(=O)OC(C)C)cc1 (stereo not given)
  18%&4%	17%&-1%
- CC(C)CCNC(=O)c1cc(-c2ccc(Br)s2)nc2ccccc12
  -4%	-3%
- Cc1ccccc1NC1(c2nnnn2-c2c(C)cccc2C)CCCCC1
  -1%	15%
- Cc1oc(-c2ccc(C(=O)NCCC(C)C)cc2)nc1CS(=O)(=O)c1ccccc1
  1%	-3%
- Cc1ccc(C(=O)COC(=O)C23CC4CC(CC(O)(C4)C2)C3)s1
  0%	-9%
- O=C(Nc1ccc(-c2noc(-c3ccccc3Br)n2)cc1)c1ccc(Br)o1
  178%[activator]	54%[activator]
- COCCNc1ccc(-c2nc(-c3ccco3)no2)cc1[N+](=O)[O-]
  88%[activator]	-6%
- CCOc1ccc(NC(=O)Cn2c(C)cc3ccccc3c2=O)cc1
  -10%	7%
- Cc1cc2c(cc1C)NC(CC(=O)Nc1ccc(C(F)(F)F)cc1)C(=O)N2 (stereo not given)
  31%[activator]	-2%
- CCOc1ccc(OC(=O)c2ccc3c(c2)NC(=O)CS3)cc1
  -12%	-9%
- Cn1c(=O)cc(SCC(=O)NCCc2ccc(Cl)cc2)c2cc(Cl)ccc21
  -6%	0%
- COc1ccc(S(=O)(=O)N(Cc2nc(-c3ccc(C)cc3)no2)C2CCCCC2)cc1
  -8%	36%[activator]
- CCN(CC)S(=O)(=O)c1ccc(NC(=O)Cn2nnc(-c3ccc(F)cc3)n2)cc1
  3%	14%
- CCOc1ccc(N(CC)S(=O)(=O)N2CCCC(C(=O)Nc3ccc(C(C)=O)cc3)C2)cc1 (stereo not given)
  0%	4%
- CCN(CC)CCNC(=O)Nc1ccc2c(c1)N(Cc1ccccc1)C(=O)c1ccccc1S2
  12%	34%[activator]
- Cc1ccccc1NC(=O)CSc1ccc(-c2ccccn2)nn1
  35%[activator]	-3%
- Cc1ccsc1CN(C(=O)COc1ccc(Br)cc1)C1CCS(=O)(=O)C1 (stereo not given)
  0%	10%
- CCn1c(-n2nc(C)c(C)c2C)nc2c1c(=O)n(CCN1CCCCC1)c(=O)n2C
  -5%	-14%
- Cc1ccc(CNC(=O)CCCn2nc(C)n3c(cc4sccc43)c2=O)cc1
  15%	17%
- CCN1CCN(Cc2c(O)ccc3c(C)c(-c4ccc(OC)cc4)c(=O)oc23)CC1
  -5%	-13%
- c1ccc(N2CCSC2c2cccs2)cc1 (stereo not given)
  17%	2%
- Cc1ccc2nc(-c3cccc(NC(=O)c4ccc(Br)o4)c3)oc2c1
  55%[activator]	-9%&25%
- COc1c(Cl)cc(Cl)cc1CNCCSc1nnnn1C
  -17%	4%
- CCc1cc(=O)oc2c(C)c(OCC(=O)NCCCn3ccnc3)ccc12
  -3%	-6%
- CCC(C)NC(=O)CN1C(=O)c2cccnc2Sc2ccccc21 (stereo not given)
  -4%	-1%
- Cc1ccc(OCCSc2nc3ccccc3n2CCC(=O)O)cc1C
  23%	-5%
- Cc1[nH]c2ccccc2c1C(C(=O)O)N1CCN(c2nsc3ccccc23)CC1 (stereo not given)
  -15%	1%
- COc1ccccc1N1CCN(C(=O)Cn2ncc3c2-c2cc(C)ccc2OC3)CC1
  -13%&-27%	-4%&-21%
- CCN(C(=O)C1CCCC1)C1CC1
  -11%	-2%
- Cc1cc(C)c(N)c([N+](=O)[O-])c1
  16%	5%
- CCc1ccccc1N(CC)C(=O)c1c(C)oc2ncnc(N3CCOCC3)c12
  -18%	2%
- CN1CCc2c(c(N3CCOCC3)nc3sc(C(=O)N4CCOCC4)c(N)c23)C1
  0%	-9%
- COc1ccc(-n2c(=O)c3c(c4cc(OC)ccc4n3C)n(CC(=O)N3CCCC3)c2=O)cc1
  3%	-11%
- C#CCNC(=O)C(C#N)C(=O)CCc1ccc2ccccc2c1 (stereo not given)
  -6%	?
- Cc1cc2c(n1-c1ccc(C(=O)NCCc3ccc(Cl)cc3)cc1)CCC(C)C2 (stereo not given)
  21%	11%
- CC1CN(C(=O)NCc2ccccc2)c2cc(Cl)ccc2O1 (stereo not given)
  -14%	5%
- COC(=O)c1cc(OC)ccc1OCC(=O)NCC(F)(F)F
  13%	-1%
- COc1cccc(N2CCN(c3ncnc4onc(-c5ccc(Cl)cc5)c34)CC2)c1
  -13%	17%
- O=C(COc1ncnc2ccccc12)Nc1ccccc1Cl
  22%	5%
- Cc1ccc(S(=O)(=O)N(CC(=O)Nc2ccc(C(C)C)cc2)Cc2ccccc2)cc1
  -10%	0%
- COc1ccc(Cl)cc1NC(=O)CSc1nc2ccccc2nc1N1CCCCC1
  -9%	12%
- O=C(Nc1ccccc1OCc1cc(=O)n2ccccc2n1)c1cccc(Br)c1
  10%	6%
- CCOC(=O)c1cc(NC(C)=O)cc(C(=O)OCC)c1
  23%	47%[activator]
- COC(=O)C1CN(C2CCCC2)CCS(=O)(=O)N1Cc1cn(Cc2ccc(F)cc2)nn1 (stereo not given)
  4%	-19%
- COc1ccc2c(c1)c1c(c(=O)n(-c3ccc(OC)c(OC)c3)c(=O)n1Cc1ccccc1C)n2C
  -13%	-8%

The listing continues:
Order of values – 2A firefly	2A Renilla
- CCOc1ccccc1Oc1coc2cc(OCC(=O)N3CCCCCC3)ccc2c1=O
  9%	11%
- O=C(NCc1ccc(Cl)cc1)c1cccc(-c2ccc(S(=O)(=O)N3CCCCC3)cc2)c1
  2%	2%
- CC(Oc1ccccc1)C(=O)N1CCN(Cc2cc(=O)n3nc(-c4ccccc4Cl)sc3n2)CC1 (stereo not given)
  -5%	-15%
- CN1C[C@]2(C=C3CCCCC3n3c(=O)n(-c4ccccc4)c(=O)n32)N(C(=O)OCc2ccccc2)C1=NC(=O)c1ccccc1 (stereo not given in full)
  68%[activator]	59%[activator]
- Cc1ccc(-c2nc3c4ccccc4[nH]c(=O)n3n2)cc1
  304%[activator]	14%
- COc1ccc2nc(Nc3ncc4c(n3)CC(C)CC4=O)nc(C)c2c1 (stereo not given)
  7%	-1%
- O=C(O)c1ccc(F)c(S(=O)(=O)N2CCC2)c1
  -1%	-4%
- O=C(c1cccnc1)N(Cc1ccccc1)Cc1cc2ccccc2[nH]c1=O
  4%	7%
- O=C(Cn1ncc2c3ccccc3n(Cc3ccc(Cl)cc3)c2c1=O)NCc1ccccn1
  11%	6%
- Cc1ccc(S(=O)(=O)N2CCCc3cc(NS(=O)(=O)c4cccc(Cl)c4)ccc32)cc1
  ?	-10%
- CC(=O)N1CCCc2cc(S(=O)(=O)N(C)CC(=O)Nc3ccc(F)c(Cl)c3)ccc21
  ?	?
- Cn1c(NC(=O)c2ccco2)c(-c2cccc(C(F)(F)F)c2)c(=O)c2ccccc21
  -11%	-18%
- Oc1ccccc1-c1ccnc2cc(-c3ccccc3)nn12
  21%	-8%
- Cc1cccc(-c2cc(C(=O)O)c3ccc(Br)cc3n2)c1
  0%	-5%
- COc1ccc(C(=O)NC2Cc3ccccc3C2)cc1
  157%[activator]	16%
- O=C(COc1ccc2c(-c3ccccc3)cc(=O)oc2c1)NCCN1CCOCC1
  2%	-6%
- CN(C)C(=O)COc1ccc(NC(=O)c2nn(C)c(=O)c3ccccc23)cc1
  163%[activator]	81%[activator]
- COc1cccc(NC(=O)c2ncoc2-c2cccs2)c1
  139%[activator]	-3%
- O=C(NCC(c1ccc(Cl)cc1)N1CCOCC1)c1ccccc1F (stereo not given)
  7%	33%[activator]
- COc1ccc(NC(=O)C2=C(C)C(=O)OC23CCN(C(C)C)CC3)cc1Cl
  -15%	-21%
- Cc1ccc(C(=O)OCc2nnc(-c3ccc(Cl)cc3)o2)s1
  0%	3%
- O=C(O)c1cc2ccc(OCCc3ccccc3)cc2[nH]1
  171%[activator]	30%
- Nc1nccnc1C(=O)NCc1ccc(O)cc1
  13%	18%
- Cc1nn(CC(=O)NCc2cccc(Br)c2)c(=O)c2cccn12
  16%	-8%
- COC(=O)c1ccc(/C=C2\Oc3cc(OC(=O)C(C)(C)C)ccc3C2=O)cc1
  13%	-2%
- Cc1cc(C)c(S(=O)(=O)NCCc2cc3c(C)ccc(C)c3[nH]c2=O)c(C)c1
  -13%	-9%
- Cc1cc(C)n(-c2nc3ccccc3nc2N2CCN(C)CC2)n1
  4%	-4%
- Cc1ccc(C(=O)O)cc1NS(=O)(=O)c1ccc2c(c1)oc(=O)n2C
  0%	-6%
- COc1cccc(NC(=O)COc2cc(C)cc3oc(=O)cc(C)c23)c1
  4%	12%
- COc1ccc(C(=O)COC(=O)CCc2ccc(-c3ccccc3)o2)cc1
  0%	-1%
- CCN(c1ccc(NC(=O)c2cnc3ccccc3n2)cc1)C(C)C
  33%[activator]	?
- COc1ccc(-c2nc3sc(CCNC(=O)C(=O)Nc4ccc(OC)c(OC)c4)c(C)n3n2)cc1
  4%	-5%
